Vif TR-FRET: inhibitors of Vif binding to APOBEC3G peptide, primary screen, biochemical, TR-FRET, GST-Vif 1-94, biotin-A3G peptide, dose response retest (AID 1117319); TR-FRET GST-Vif / biotin-A3G peptide binding; higher % means a stronger effect; test concentration not given here; strong numbers were not always called active; inhibition, %; hits with a dose series show IC50 in µM; 260,000 compounds, 0.57% hits;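 active = above the screen mean plus three standard deviations and confirmed in dose response; inconclusive = results disagree or hit not tested in dose response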;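 note: Vif residues 1-94 fused to GST binding biotinylated APOBEC3G peptide 110-148; 0% = full assay without inhibitor and 100% = GST in place of GST-Vif; retest series ran down from 100 µM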
FGF22 binding: binders of recombinant human FGF22 by thermal shift; calls only at 9.99 µM; 340,000 compounds, 1.5% hits; SYPRO orange fluorescence; percent of sucrose octasulfate shift, DMSO zero; AID 651658; Q9HCT0;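 active = melting point raised past a set limit in the mean and every replicate; inconclusive = no clear call; three in four hits are not shown here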
Target sequence (Q9HCT0 whole entry, looked up): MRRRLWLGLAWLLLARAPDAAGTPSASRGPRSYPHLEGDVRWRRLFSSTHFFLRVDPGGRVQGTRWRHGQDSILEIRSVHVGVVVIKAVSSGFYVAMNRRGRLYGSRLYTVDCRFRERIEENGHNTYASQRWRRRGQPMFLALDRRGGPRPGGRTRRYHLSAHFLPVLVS
Ecoli growth: inhibitors of Escherichia coli growth | OD600, 23 h; hits give low values | OD600 absorbance (test concentration not listed) | 330,000 compounds, 0.21% hits | AID 1053175;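 active = OD600 absorbance below the run mean of sample wells minus 3.6 SD, in any replicate, cut at about 0.56 in these data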;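 note: stock transfer was 300 nL into about 60 µL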
HNF4A DNA FP: change in binding of human HNF4 alpha to DNA; P41235; activity change, % at 10 µM; HNF4a-FITC DNA binding, fluorescence polarization, 1 h; 360,000 compounds, 0.3% hits; AID 1224865; in the data active = activity change above about 30%, passing the limit was not always enough;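 note: controls were the assay level and a saturating level of protein; the project sought stronger binding though the title names inhibitors; some compounds called inactive have numbers as strong as hits; positive values seem to mean higher polarization but the record does not say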
Target sequence (P41235 whole entry, looked up): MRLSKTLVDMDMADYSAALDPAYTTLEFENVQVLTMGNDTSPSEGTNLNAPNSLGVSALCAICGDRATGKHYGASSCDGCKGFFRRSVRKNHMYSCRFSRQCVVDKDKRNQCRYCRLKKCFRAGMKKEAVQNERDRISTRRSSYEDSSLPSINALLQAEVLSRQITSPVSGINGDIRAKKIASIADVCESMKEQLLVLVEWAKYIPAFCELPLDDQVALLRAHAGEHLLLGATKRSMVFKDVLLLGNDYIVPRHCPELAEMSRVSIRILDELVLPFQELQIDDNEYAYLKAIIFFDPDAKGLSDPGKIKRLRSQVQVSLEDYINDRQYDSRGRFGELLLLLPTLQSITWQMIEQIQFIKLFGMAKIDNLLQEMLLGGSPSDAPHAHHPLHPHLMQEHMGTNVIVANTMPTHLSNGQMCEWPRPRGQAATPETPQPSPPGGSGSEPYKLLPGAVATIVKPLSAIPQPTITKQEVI
Ecoli rRNA inh: inhibitors of bacterial rRNA selective over humanized ribosomes; GFP signal change (wild-type ribosome), % (concentration not given with the values); 350,000 compounds, 1.6% hits; E. coli WT GFP vs humanized-ribosome RFP mutants, fluorescence, 24 h; hits give low values; DMSO median 0, no signal -100; AID 720706;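 active = significant combined selectivity score with lowered wild-type GFP, culture density cut under 30%, mutant RFP and density less affected; inactive = any of these conditions unmet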; note: one replicate is shown; some compounds called inactive have numbers as strong as hits
MLL AF4-AF9 inh: inhibitors of human MLL-AF4/AF9 interaction. AlphaScreen, biotin-AF4 peptide binding to FLAG-AF9. inhibition, % at 10 µM. 350,000 compounds, 0.47% hits. AID 651704;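 active = every replicate reaching a set inhibition limit, whatever the replicate mean, cut at about 25% in these data; inconclusive = mean inhibition reaches that limit but some replicates miss it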;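 note: 0% = plate neutral control median and 100% = total signal loss; the record names both 10 and 1 µM as test concentration; the first replicate is given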
ALR H2O2 inh: inhibitors of human sulfhydryl oxidase ALR | P55789 | AID 485317 | inhibition, % (no concentration beside the values) | purified ALR, DTT oxidation, H2O2 HRP-luminol luminescence | 290,000 compounds, 3.8% hits;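 active = mean and each replicate at 75% or more; inconclusive = only one of the two met; inactive = neither met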;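 note: stock transfer was 7.5 nL into about 7.5 µL; 0% = neutral wells and 100% = wells with inactivated enzyme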
Target sequence (P55789 whole entry, looked up): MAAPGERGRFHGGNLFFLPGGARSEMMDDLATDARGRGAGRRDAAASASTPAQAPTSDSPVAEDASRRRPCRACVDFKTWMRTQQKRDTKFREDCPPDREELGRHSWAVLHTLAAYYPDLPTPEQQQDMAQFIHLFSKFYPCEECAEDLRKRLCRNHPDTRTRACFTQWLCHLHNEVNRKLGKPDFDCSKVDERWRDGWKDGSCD
Ecoli rRNA inh OD600: recorded beside Ecoli rRNA inh, whose call it bears; OD600 change, %; measured here: OD600 growth;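 optical density of the mix in the first replicate; 0 = DMSO median and -100 = no signal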
Ecoli rRNA inh RFP: also measured in Ecoli rRNA inh; calls as there; RFP signal change, %; measured here: RFP humanized mutant strains;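 first replicate; 0 = DMSO median and -100 = no signal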
Active calls of the source: *; i = inactive; ? = inconclusive; . = no result given; & = joins results of further samples. These rows are one share of the data; count on the stated rates, not on these rows.

structure	Vif TR-FRET	FGF22 binding	Ecoli growth	HNF4A DNA FP	Ecoli rRNA inh	Ecoli rRNA inh OD600	Ecoli rRNA inh RFP	MLL AF4-AF9 inh	ALR H2O2 inh
Nc1c(C(=O)NCCN2CCOCC2)c2nc3ccccc3nc2n1Cc1ccco1	?	.	0.69	-2.1	.	.	.	.	-2
COc1cc2c(cc1OC)C(C)NCC2 (stereo unspecified)	.	i	0.66	-2.3	.	.	.	-7.3	-2
COC(=O)C1=C(c2ccc(F)cc2OCc2ccccc2)C[C@@H]2CC[C@H]1N2C(=O)NCc1ccc(F)cc1	.	i	.	4.8	4	-1	-5.4	-52	1
CCC(C)c1ccc(N2C(=O)NC(=O)/C(=C/c3cccn3CCOc3ccc(C)cc3)C2=O)cc1 (stereo unspecified)	.	.	0.74	-3.9	.	.	.	.	-3
O=C(COc1ccccc1)Nc1ccc(Cl)cc1C(=O)c1ccccc1	0%	.	0.64	1.9	.	.	.	.	-4
ClCCN(CCCl)c1ccc(C2=NCCc3ccccc32)cc1	6%	i	0.56	-1.1	-31	-63	13	8.8	.
CCOP(=O)(OCC)C(NC(=O)C(C)C)C(Cl)(Cl)Cl (stereo unspecified)	-6%	.	0.68	5.7	.	.	.	.	-11
CCOP(=S)(OCC)N1CC1	-7%	i	0.69	0.2	13	4	1.1	-54	.
CC(C(=O)Nc1ccc(Br)cc1C(=O)c1ccccc1)N1CCOCC1 (stereo unspecified)	0%	.	0.7	1.7	.	.	.	.	-8
COC(=O)C1=C(c2ccc(OC(F)(F)F)cc2)C[C@@H]2CC[C@H]1N2C(=O)NCCOc1ccccc1Cl	.	i	.	1.4	-6	-29	-6.6	-5.3	0

Filtered by structure: the compounds so far containing nitrogen in an aromatic ring
structure	Vif TR-FRET	FGF22 binding	Ecoli growth	HNF4A DNA FP	Ecoli rRNA inh	Ecoli rRNA inh OD600	Ecoli rRNA inh RFP	MLL AF4-AF9 inh	ALR H2O2 inh
Nc1c(C(=O)NCCN2CCOCC2)c2nc3ccccc3nc2n1Cc1ccco1	?	.	0.69	-2.1	.	.	.	.	-2
CCC(C)c1ccc(N2C(=O)NC(=O)/C(=C/c3cccn3CCOc3ccc(C)cc3)C2=O)cc1 (stereo unspecified)	.	.	0.74	-3.9	.	.	.	.	-3

Continued:
structure	Vif TR-FRET	FGF22 binding	Ecoli growth	HNF4A DNA FP	Ecoli rRNA inh	Ecoli rRNA inh OD600	Ecoli rRNA inh RFP	MLL AF4-AF9 inh	ALR H2O2 inh
Clc1ccccc1CNCCc1c[nH]c2ccccc12	-2%	i	.	-3.5	13	12	0.8	1.5	.
COc1cccc(N=Cc2c(O)n(Cc3ccco3)c(=O)[nH]c2=O)c1	-9%	i	0.7	-2.2	14	6	-1.0	0.7	17
CCCCn1c(O)c(C(C)=NCCN2CCOCC2)c(=O)[nH]c1=O	6%	.	0.71	3.3	.	.	.	.	16
CCC(=NCc1ccco1)c1c(O)n(-c2ccccc2C)c(=O)[nH]c1=O	-2%	i	0.71	0.3	15	3	4.9	1.7	-3
CCOP(=O)(OCC)C1(O)C(=O)Nc2ccc(Br)cc21 (stereo unspecified)	.	.	0.71	-3.1	.	.	.	.	-3
O=C1NC(=O)N(c2cccc(Cl)c2)C(=O)/C1=C\c1ccc(Sc2nc3ccccc3[nH]2)o1	10µM*	i	0.73	16	-3	3	30	0.4	69
O=C(CF)NC(Nc1cccc2cccnc12)C(Cl)(Cl)Cl (stereo unspecified)	?	.	0.7	-1.4	.	.	.	.	-13
Nc1ccc(Cl)cc1C(=O)c1ccccc1	0%	i	0.61	-0.8	-11	-12	-1.9	-2.4	4
O=c1[nH]c(=S)n(Cc2ccc(F)cc2)c(O)c1C=NCc1cccnc1	-34%	.	0.69	2.7	.	.	.	.	-4
COC(=O)C1=C(c2ccccc2OCc2ccccc2)C[C@@H]2CC[C@H]1N2C(=O)NCc1ccc(OC)c(OC)c1	.	i	.	1.3	-16	-6	16	2.3	0
COc1cc(/C=C2/C(=O)NC(=O)N(c3ccccc3)C2=O)ccc1O	-10%	i	0.67	0.2	10	2	-2.0	-5.5	14
Cc1nc2ccc(P(=O)(O)O)cc2s1	-16%	.	0.66	.	.	.	.	.	-2
CCCCOC(=O)c1ccccc1C(=O)OCCCC	2%	i	0.65	0.8	10	10	1.4	2.5	.
O=C1NC(=O)N(Cc2ccc(F)cc2)C(=O)/C1=C\C=C\c1ccco1	19µM*	i	0.7	30	29	8	14	0.2	3
CCN(CCNc1ccc([N+](=O)[O-])c2cccnc12)S(=O)(=O)c1ccccc1	13%	.	0.71	8.5	.	.	.	.	.
COC1=CC23CCCN2CCc2cc4c(cc2C3C1O)OCO4 (stereo unspecified)	.	i	.	0.9	.	.	.	0.0	.
O=C1/C(=C/c2cccc([N+](=O)[O-])c2)N2CCC1CC2	2%	i	0.65	-1.5	11	6	5.2	-1.4	2
CC1(O)CCC2C3CCC4=CC(=O)CCC4(C)C34OC4CC21C (stereo unspecified)	-5%	i	0.69	1.5	3	-7	6.4	1.1	.
CCOP(=O)(OCC)c1cccc(OP(=O)(c2cccc([N+](=O)[O-])c2)c2cccc([N+](=O)[O-])c2)c1	27%	i	0.64	1.8	8	9	1.7	1.6	3
COc1ccccc1N1CCN(C(CNC(=O)Oc2ccccc2)c2cccnc2)CC1 (stereo unspecified)	3%	.	0.72	2.2	.	.	.	.	?
Cc1ccc(-n2c(O)c(C=NCCN3CCOCC3)c(=O)[nH]c2=O)cc1	6%	.	0.69	1.3	.	.	.	.	4
O=C1NC(=O)C2(Cc3cc([N+](=O)[O-])ccc3N3CCN(C(=O)c4ccccc4)CC32)C(=O)N1 (stereo unspecified)	.	i	0.7	5.0	-29*	5.5*	6.1*	2.7	-1
C#CC1(OC(=O)c2ccccc2)CC(C)N(C)CC1C (stereo unspecified)	2%	i	0.68	-4.7	4	-6	-0.3	-0.2	-22
CC1=CC(=O)NP(=O)(Oc2ccc3ccccc3c2)N1 (stereo unspecified)	3%	.	0.71	0.7	.	.	.	.	18
O=S1(=O)N(Cc2ccc(F)cc2)CCCN1Cc1ccccc1Cl	-7%	i	0.68	2.5	-12	-29	-2.2	-3.9	-11
O=C(Cc1ccccc1)N1C[C@@H]2[C@H](c3ccccc31)[C@@H](CO)N2Cc1ccccc1	.	i	.	.	-6	-12	-0.1	1.7	.
C[C@@H]1CN([C@@H](C)CO)C(=O)CCCn2nncc2CO[C@@H]1CN(C)C(=O)Oc1ccccc1	4%	i	.	-3.0	2&2	4&4	-3.1&0.1	-5.0&0.9&-0.8	.
COc1cc2c(cc1OC)C13CCN4CC5=CCOC(CC(=O)O)C(C5CC41)C3N2 (stereo unspecified)	9%	i	.	-3.2	10	14	0.8	1.9	.
Cn1c(C(=O)N2CCC3(CC2)OCCO3)cc2c(=O)n(C)c3ccccc3c21	0%	.	0.72	3.9	.	.	.	.	-4
COC(=O)[C@H]1[C@H](CO)[C@H]2Cn3c(ccc(-c4ccncc4)c3=O)[C@@H]1N2S(=O)(=O)c1ccccc1F	.	i	.	.	1	0	-0.4	-2.5	.
CC1=NN(c2ccccc2)C(=O)C1/C=C1\C(=O)NC(=O)N(c2ccc(C)c(C)c2)C1=O (stereo unspecified)	31%	.	0.79	4.9	.	.	.	.	.
O=C(NC1CC1)c1cn(Cc2ccccc2)nc1-c1ccccc1	-6%	i	0.68	-2.2	3	-1	0.2	-21	.
C=C1C(C)C2C(Cc3ccccc3)NC(=O)C23OC(=O)/C=C/C(O)CCCC(C)C/C=C/C3C1O (stereo unspecified)	3%	i	.	3.5	-2	4	4.3	-1.7	.
Cc1ccc(-c2nn(Cc3ccccc3)cc2C=O)cc1	2%	.	0.69	9.2	.	.	.	.	3
O=C(c1c[nH]c2ccc(S(=O)(=O)N3CCOCC3)cc2c1=O)N1CCC2(CC1)OCCO2	.	i	0.71	0.9	18	23	0.1	1.0	7
O=C(O)c1ccc(NC(=O)N2C[C@H]3C[C@@H](C2)c2cccc(=O)n2C3)cc1	.	i	0.79	-1.1	9	14	1.2	-3.7	-1
CSCCC(c1nnnn1Cc1ccccc1)N1CCC(n2c(=O)[nH]c3ccccc32)CC1 (stereo unspecified)	.	i	.	-5.0	-10	-31	0.2	4.1	.
Cc1ccc2c(c1)CC1(CN2C)C(=O)NC(=O)N(C(C)C)C1=O (stereo unspecified)	13%	.	0.68	2.4	.	.	.	.	-10
O=c1cccc2n1CC1CC2CN(S(=O)(=O)c2cc(Cl)ccc2Cl)C1 (stereo unspecified)	.	i	0.66	1.6	10	13	1.7	-2.6	2
OC12CCCCC1C(c1ccccc1)NCC2 (stereo unspecified)	-2%	.	0.7	-0.9	.	.	.	.	-5
COc1ccc(CCNCc2c(OC)ccc3ccccc23)cc1	2%	i	0.65	3.0	-13	-35	31	2.7	.
Cc1nn(Cc2ccc(Cl)cc2Cl)c(Cl)c1C(=O)NC1CCCc2ccccc21 (stereo unspecified)	0%	.	0.68	-1.8	.	.	.	.	-3
c1ccc(-n2ccnc2)cc1	.	i	.	4.1	-2	0	0.6	1.0	4
CN(C)C(Cc1ccc(C#N)cc1)C(=O)c1ccccc1 (stereo unspecified)	4%	i	0.63	3.7	2	-13	-2.7	0.8	25
Cc1ccc(-c2nc(N(C)C3CCN(C)CC3)c3ccccc3n2)cc1	-1%	.	0.64	-2.9	.	.	.	.	-61
Cc1nc2ccccc2c(=O)n1-c1ccc([N+](=O)[O-])cc1	.	i	0.72	0.7	7	14	-0.7	5.4	-4
CNC(C)Cc1ccccc1Sc1ccc(O)cc1 (stereo unspecified)	-7%	.	0.63	1.2	.	.	.	.	99*
COc1ccc(C(=O)OC2CC3CCC(C2)[N+]3(C)[O-])cc1OC (stereo unspecified)	0%	i	0.66	4.0	14	7	1.4	-1.4	-6
CN1CCN(Cc2ccccc2Sc2ccccc2)CC1	-3%	.	0.69	0.2	.	.	.	.	-2
COc1nc2ccccc2nc1N1CCN(C)CC1	-6%	i	0.67	-0.5	3	13	1.1	-9.0	-6

Later entries
structure	Vif TR-FRET	FGF22 binding	Ecoli growth	HNF4A DNA FP	Ecoli rRNA inh	Ecoli rRNA inh OD600	Ecoli rRNA inh RFP	MLL AF4-AF9 inh	ALR H2O2 inh
CNC(=O)Oc1ccc2ncccc2c1	28%	i	0.66	2.1	15	7	-1.9	-3.5	-1
CCc1c(C(=O)NN2C(=O)C3C4CCC(O4)C3C2=O)csc1C (stereo unspecified)	-9%	i	0.7	0.4	.	.	.	-10	-58
O=C1NCN(c2ccccc2)C12CCN(C(c1ccnc3ccccc13)c1nnnn1Cc1ccccc1)CC2 (stereo unspecified)	.	i	.	-0.7	-16	-12	1.5	3.8	.
CC(=O)NC(Cc1ccc(N(CCCl)CCCl)cc1)C(=O)NCC(=O)NCC(=O)O (stereo unspecified)	?	i	0.72	-5.9	12	6	2.4	1.8	.
CCOC(=O)N(CC)c1ccc(C(O)(C(=O)OC)C(F)(F)F)cc1 (stereo unspecified)	9%	.	0.65	-0.5	.	.	.	.	-1
CCN(CC(=O)Nc1ccc(C#N)c(Cl)c1)CC(=O)NC(C)(C)C	1%	i	0.73	-3.3	-1	0	-2.9	4.1	18
OCCOCC#CCN1CCOCC1	-2%	.	0.74	-0.7	.	.	.	.	-19
O=S(=O)(c1cccc(C(F)(F)F)c1)N1Cc2ccccc2-n2nncc2C1	4%	i	.	-0.8	-24	-20	0.6	1.8	.
COc1ccc(CC(C)Nc2cccc(F)c2)cc1 (stereo unspecified)	.	i	0.7	4.6	-14	-4	-0.9	0.2	40
